From PubChem BioAssay
GLA inh pH 4.5: inhibitors of human alpha-galactosidase A at pH 4.5. activity change, negative = inhibition, % at 105 µM. P06280. purified enzyme, 4-MU-alpha-Gal fluorescence, pH 4.5. AID 1467. 230,000 tested, under 10 active; inconclusive = small, poorly fitted or top-dose-only inhibition, or a rising curve; inactive = flat fitted curve, though single readings scatter; no compound was filed as active;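 note: 0% = full activity with enzyme and -100% = basal without enzyme; dose as in the result columns while the protocol names 77 µM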
miR-21 FLuc: raises the signal of a miR-21 reporter | AID 2288 | HeLa miR-21 FLuc reporter, luciferase, 48 h | 340,000 tested, under 10 active | Potency, µM (titrated, usually from 38.3 µM), for inactives: at the top dose reporter change, positive = more light; active = well fitted rising curve with a large enough effect; inconclusive = small, poorly fitted or top-dose-only effect; inactive = no such curve, though single readings can be large or run the other way;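 note: % of control where 0% means no effect; miR-21 action dims this reporter so a rising signal means less miR-21 action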
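Using DMEM plus 10% FBS, HeLa miR-21-FLuc cells are incubated with test compounds (final up to about 40uM) for 48 hours; firefly luciferase signal is then imaged following reagent-mediated lysis.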
Rango release inh: inhibition of RanGTP-driven Rango-importin beta dissociation; actives 0.071% (n = 340,000); Potency, µM (series often up to 46.1 µM), for inactives: at the top dose activity change, negative = inhibition; Biochemical FRET Rango-importin beta, RanGTP-induced dissociation; O95149+P62826; active means falling FRET ratio curve, often poorly fitted, with flat reads before Ran was added; inconclusive means other falling curves, or compound fluorescence or quenching; inactive means flat or rising ratio curve;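 note: potency is the fitted concentration of half-maximal effect; % of control where 0% means no effect; nearly all actives have a fitted effect of over 45% in size; -100% = wells without RanGTP and RCC1; the record marks most hits as doubtful in a second field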
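Recombinant Rango FRET biosensor (EYFP–snurportin 1 IBB–cerulean CFP10) at 0.1 uM premixed with 0.25 uM importin beta in PBS, 1 mM DTT, 0.02% Tween-20, 0.1% BSA. Compound added 5 min; RanGTP-RCC1 (0.6 uM Ran, 2 mM GTP, 0.2 uM RCC1) then triggers release, read at 45 min.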
Rango complex inh: prevents formation of the Rango-importin beta complex | Q14974 | Rango CFP/YFP FRET sensor + importin beta, 45 min | Potency, µM (doses to about 92.2 µM), inactives show at the highest dose inhibition of complex formation | actives 0.031% (n = 340,000); active = rising FRET ratio curve, often small or poorly fitted; inconclusive = mostly compound fluorescence or quenching in the first reads; inactive = flat curves in all reads;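 note: potency is the fitted concentration of half-maximal effect; 0% = DMSO wells and 100% = buffer wells lacking importin beta; nearly all actives have a fitted effect of over 15% in size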
Target sequence (Q14974 whole entry, looked up): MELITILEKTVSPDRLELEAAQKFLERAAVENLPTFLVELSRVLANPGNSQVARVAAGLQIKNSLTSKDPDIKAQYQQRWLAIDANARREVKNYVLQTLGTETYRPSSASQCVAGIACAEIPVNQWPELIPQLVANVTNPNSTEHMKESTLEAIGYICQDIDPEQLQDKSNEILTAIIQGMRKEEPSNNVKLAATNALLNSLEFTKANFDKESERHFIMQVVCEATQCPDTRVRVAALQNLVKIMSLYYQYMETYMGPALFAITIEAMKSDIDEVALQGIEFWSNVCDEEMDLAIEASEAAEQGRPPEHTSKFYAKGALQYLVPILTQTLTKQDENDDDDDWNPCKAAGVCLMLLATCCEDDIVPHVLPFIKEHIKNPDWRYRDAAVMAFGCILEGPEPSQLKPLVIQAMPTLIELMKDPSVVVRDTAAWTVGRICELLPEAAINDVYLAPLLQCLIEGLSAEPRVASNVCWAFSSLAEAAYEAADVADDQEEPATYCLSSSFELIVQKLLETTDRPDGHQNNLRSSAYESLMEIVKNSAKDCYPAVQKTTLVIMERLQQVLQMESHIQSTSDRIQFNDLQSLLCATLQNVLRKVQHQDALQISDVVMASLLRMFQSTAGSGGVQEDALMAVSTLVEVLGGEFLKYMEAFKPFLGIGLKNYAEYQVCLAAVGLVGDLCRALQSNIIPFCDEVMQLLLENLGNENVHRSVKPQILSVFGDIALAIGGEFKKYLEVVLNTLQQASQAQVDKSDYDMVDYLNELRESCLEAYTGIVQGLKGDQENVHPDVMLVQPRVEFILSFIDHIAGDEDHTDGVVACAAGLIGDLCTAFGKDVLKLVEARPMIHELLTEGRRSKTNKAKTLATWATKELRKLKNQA
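Inhibition scored from the CFP 486 nm/YFP 530 nm FRET ratio 45 min after adding 0.125 microM importin beta to 50 nM Rango biosensor preincubated 5 min with compound (room temperature, PBS with DTT, Tween-20, BSA). No-importin wells as positive control.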
An asterisk follows results filed as active; & = joins results of further samples.

For CCC(=NCc1ccccc1)C1=C(O)C(C(=O)OC)C(C)(C)CC1=O (stereo not drawn) the results were GLA inh pH 4.5 -0.3, miR-21 FLuc -2.2%, Rango release inh 13.0% and Rango complex inh 1.0%.
Screening COc1cc(F)c(C2=CC(=O)CC(C)(C)C2)cc1F returned Rango release inh -3.6% and Rango complex inh -3.0%.
For Cn1c(C2=C(O)CN(Cc3ccccc3)C2=N)[n+](C)c2ccccc21 the results were GLA inh pH 4.5 -2.0, miR-21 FLuc -4.0%, Rango release inh -1.0% and Rango complex inh -1.5%.
O=C(Nc1cccc(S(=O)(=O)N2CCCCCC2)c1)C1=COCCO1 was read as Rango release inh 13.9% and Rango complex inh inconclusive.
Screening N/C(=N\OC(=O)c1cccc(Cn2cc(C(F)(F)F)ccc2=O)c1)c1ccccc1 returned GLA inh pH 4.5 -11.6, miR-21 FLuc 1.7%, Rango release inh -15.1% and Rango complex inh 5.8%.
Screening COc1ccc(C2C(C#N)=C(N)Oc3n[nH]c(C)c32)cc1Cn1nnc2ccccc21 (stereo not drawn) returned GLA inh pH 4.5 3.1, miR-21 FLuc -11.7%, Rango release inh -5.5% and Rango complex inh 1.2%.
`Cc1c(Cl)cccc1NC(=O)CNC(=O)c1ccccc1F` gave GLA inh pH 4.5 -2.2, miR-21 FLuc -9.3%, Rango release inh -4.4% and Rango complex inh -3.0%.
Cc1cccc(NC(=S)NC(=O)c2ccc(-c3ccccc3)cc2)n1 was read as miR-21 FLuc -51.5%, Rango release inh -6.9% and Rango complex inh 0.9%.
O=C(NC12CC3CC(CC(C3)C1)C2)c1cc(F)c(F)c(F)c1F was read as miR-21 FLuc 0.2%, Rango release inh -12.0% and Rango complex inh 2.5%.
COc1ccc(NC(=O)CSc2nccn2C)cc1S(N)(=O)=O was read as GLA inh pH 4.5 1.7, miR-21 FLuc 0.1%, Rango release inh 1.3% and Rango complex inh 3.7%.
Screening CCn1c(C(=O)NCCCc2ccccc2)cc2sccc21 returned GLA inh pH 4.5 -1.2, miR-21 FLuc -22.9%, Rango release inh 4.3% and Rango complex inh -1.8%.
Screening COc1ccc(-c2cc(C(F)(F)F)nc(N)n2)cc1 returned GLA inh pH 4.5 -23.0, miR-21 FLuc -28.8%, Rango release inh 0.0% and Rango complex inh 0.8%.
For COc1ccc(CNC(=O)Cn2ccc(NC(=O)OCc3ccccc3)nc2=O)cc1 the results were Rango release inh -7.0% and Rango complex inh 2.4%.
For COc1ccc(/C=C2\Oc3cc(OCC(=O)N4CCC(C(=O)O)CC4)ccc3C2=O)c(OC)c1OC the results were miR-21 FLuc -4.6%, Rango release inh inconclusive and Rango complex inh inconclusive.
Cc1nnc(NC(=O)C(c2ccccc2)c2ccccc2)s1 was read as miR-21 FLuc 7.8%, Rango release inh -0.5% and Rango complex inh 4.7%.
`C#CCOCCOCCOCCNc1nc(N2CCN(C(=O)CCCCCCCCCCNC(=O)Cn3cc(CCCCCN)nn3)CC2)nc(N2CCN(C(=O)CCCCCCCCCCNC(=O)Cn3cc(C[C@@H](C)O)nn3)CC2)n1` gave Rango release inh -7.1% and Rango complex inh 1.5%.
Screening CCOC(=O)c1nn(-c2ccc(C)c(C)c2)c(=O)c(C#N)c1C returned miR-21 FLuc 0.1%, Rango release inh 25.2% and Rango complex inh -0.6%.
O=C(COC(=O)Cc1n[nH]c(=O)c2ccccc12)Nc1c(Cl)cccc1C(F)(F)F was read as Rango release inh 21.8% and Rango complex inh 2.7%.
`COc1ccc(C(=O)N2CCCC(c3ccccc3)C2)cc1` (stereo not drawn) gave GLA inh pH 4.5 -10.0, miR-21 FLuc -18.1%, Rango release inh inconclusive and Rango complex inh 1.4%.
Screening CSc1ccc(CNc2ccccn2)cc1 returned GLA inh pH 4.5 -0.4, miR-21 FLuc -40.8%, Rango release inh -14.4% and Rango complex inh 0.6%.
COc1ccc(C(=O)CCc2ccc(OC)c(OC)c2)cc1 was read as Rango release inh -9.5% and Rango complex inh -6.8%.
`CCc1ccc(NC(=O)C2CC=CCC2C(=O)O)cc1` (stereo not drawn) gave GLA inh pH 4.5 1.0, miR-21 FLuc -6.6%, Rango release inh 0.2% and Rango complex inh 0.8%.
Screening COC(=O)c1sccc1NC(=O)CSc1ccccc1NS(=O)(=O)c1ccc(F)cc1 returned GLA inh pH 4.5 -5.0, miR-21 FLuc 3.2%, Rango release inh 0.3% and Rango complex inh -2.3%.
CSc1nnc(C)c(=O)n1COC(=O)/C=C/c1ccc2c(c1)OCO2 was read as GLA inh pH 4.5 7.0, miR-21 FLuc 0.8%, Rango release inh 10.8% and Rango complex inh -4.9%.
For CCCCNC(=O)C(C)N(CCN(C)C)C(=O)CCCN1C(=O)NC(c2ccc([N+](=O)[O-])cc2)C(C(=O)OCc2ccccc2)=C1C (stereo not drawn) the results were Rango release inh 2.3% and Rango complex inh inconclusive.
For O=C(CSc1nc2c(sc3ccccc32)c(=O)n1CCc1ccccc1)NCc1ccco1 the results were GLA inh pH 4.5 1.0, miR-21 FLuc -3.1%, Rango release inh 13.5% and Rango complex inh inconclusive.
`CC(=O)c1cc2c(cc1N/C(=N/S(=O)(=O)c1ccc(C)cc1)c1ccc(Cl)cc1)OCO2` gave GLA inh pH 4.5 2.0, miR-21 FLuc 4.0%&-2.8%, Rango release inh 1.4% and Rango complex inh 0.0%.
CN(C)S(=O)(=O)c1cccc(NC(=O)COC(=O)[C@H](Cc2ccccc2)NC(=O)c2ccco2)c1 was read as Rango release inh -7.1% and Rango complex inh -0.4%.
Screening Cc1cccc(C(=O)CC(=O)c2cc(Cl)ccc2O)c1 returned GLA inh pH 4.5 -9.4, miR-21 FLuc 24.1%, Rango release inh -7.2% and Rango complex inh 0.6%.
For Cc1ccc2nc(NC(=O)C3CCN(C(=O)c4ccc(F)cc4)CC3)sc2c1 the results were miR-21 FLuc -14.1%, Rango release inh -2.3% and Rango complex inh -2.7%.
Screening Cc1c(Cl)cccc1NC(=O)[C@@]1(CC(=O)O)CC(/C=C/c2ccccc2)=NO1 returned miR-21 FLuc -0.6%, Rango release inh 2.2% and Rango complex inh -0.3%.
For COc1ccc(CCNC(=O)C(=O)NCC2OCCN2C(=O)c2ccc(Cl)cc2)cc1 (stereo not drawn) the results were miR-21 FLuc -1.1%, Rango release inh -18.4% and Rango complex inh 2.9%.
For Cn1c(=O)c(Oc2ccc(F)cc2)c(O)c2ccccc21 the results were GLA inh pH 4.5 9.5, miR-21 FLuc 2.5%, Rango release inh -1.7% and Rango complex inh 2.8%.
Screening CCCCC(=O)Nc1ccc(F)c(Cl)c1 returned GLA inh pH 4.5 1.7, miR-21 FLuc -16.3%, Rango release inh 6.5% and Rango complex inh 1.3%.
For COc1cccc(NC(=O)Nc2ccc3c(c2)CCC3)c1 the results were miR-21 FLuc -23.5%, Rango release inh 0.1% and Rango complex inh -0.6%.
For Oc1ccc(C[C@H]2CNC(=S)N2CC2CCCN2C[C@H](Cc2ccc(O)cc2)N2C[C@H](Cc3ccccc3)N(CC3CCCCC3)C2=S)cc1 (stereo partly drawn) the results were Rango release inh 8.0% and Rango complex inh -1.0%.
Cc1cc(C)n(CCN(C)Cc2cn[nH]c2-c2ccc(F)cc2F)n1 was read as GLA inh pH 4.5 8.3, miR-21 FLuc -4.7%, Rango release inh -11.4% and Rango complex inh 0.5%.
CSc1ccccc1NC(=O)Cn1c(-c2cscn2)nc2ccccc21 was read as GLA inh pH 4.5 -4.0, miR-21 FLuc -9.1%, Rango release inh -18.7% and Rango complex inh 3.8%.
`CCCOc1ccc(NC(=O)c2c(-c3ccccc3)noc2C)cc1` gave GLA inh pH 4.5 4.4, miR-21 FLuc -2.8%, Rango release inh -12.8% and Rango complex inh 3.4%.
`COc1ccc(NC(=O)C/C(C)=N/NC(=O)C(=O)Nc2cccc(Cl)c2C)c(OC)c1` gave GLA inh pH 4.5 -4.1, miR-21 FLuc -17.0%, Rango release inh -13.8% and Rango complex inh 0.2%.
`COC(=O)[C@H]1[C@@H](C)N(CCc2cc(OC)c(OC)c(OC)c2)C(=O)N[C@H]1c1ccccc1` gave GLA inh pH 4.5 5.1, Rango release inh 0.2% and Rango complex inh -3.1%.
For CCN1CC=C2C(C#N)=C(N)C(C#N)(C#N)C(c3cc(Cl)ccc3Cl)C2C1 (stereo not drawn) the results were GLA inh pH 4.5 12.2, miR-21 FLuc -3.8%, Rango release inh inconclusive and Rango complex inh inconclusive.
COc1cc(C2C(C#N)=C(N)N(N(C)C)C3=C2C(=O)CCC3)cc(OC)c1OC (stereo not drawn) was read as miR-21 FLuc -2.0%, Rango release inh -0.9% and Rango complex inh -2.3%.
For CSc1ccccc1C(=O)C1CCCN(C(=O)c2csnn2)C1 (stereo not drawn) the results were GLA inh pH 4.5 1.7, miR-21 FLuc -31.7%, Rango release inh -7.8% and Rango complex inh -3.3%.
Screening Cc1ccc(NC(=O)C/C(N)=N/O)cc1C returned GLA inh pH 4.5 -2.0, miR-21 FLuc -3.1%, Rango release inh -4.6% and Rango complex inh -1.0%.
`O=C(N/N=C/c1cccnc1)c1cc(O)c(O)c(O)c1` gave miR-21 FLuc -0.1%, Rango release inh 5.3% and Rango complex inh 1.2%.
Screening COc1ccccc1CNC(=O)CCNC(=O)N1CC(=O)Nc2ccccc21 returned miR-21 FLuc 2.4%, Rango release inh 3.5% and Rango complex inh 2.0%.
CC(C(=O)NC1CCCC1)N1CCN(S(=O)(=O)c2ccc(C(C)(C)C)cc2)CC1 (stereo not drawn) was read as Rango release inh -3.5% and Rango complex inh -4.0%.
Screening CCc1cc(-c2n[nH]c(CCC(=O)O)c2-c2nc3ccccc3n2C)c(O)cc1O returned GLA inh pH 4.5 2.2, miR-21 FLuc 0.4%, Rango release inh inconclusive and Rango complex inh 2.1%.
O=C(/C=C/c1ccccc1[N+](=O)[O-])OC1CCCCC1=O (stereo not drawn) was read as GLA inh pH 4.5 0.4, miR-21 FLuc -0.8%, Rango release inh 9.6% and Rango complex inh 4.1%.
COc1ccccc1NS(=O)(=O)c1ccc2oc(SC)nc2c1 was read as miR-21 FLuc 3.7%, Rango release inh 3.7% and Rango complex inh 3.9%.
O=C(c1cc(COc2ccc(F)cc2F)on1)N1CCSCC1 was read as GLA inh pH 4.5 -4.2, miR-21 FLuc -63.5%, Rango release inh -8.2% and Rango complex inh 3.7%.
`CCOc1ccc(-c2nn3c(-c4ccc(OC)cc4)nnc3s2)cc1` gave GLA inh pH 4.5 7.8 and miR-21 FLuc 3.8%.
Screening O=C(CCc1ccc(S(=O)(=O)N2CCOCC2)cc1)Nc1ccc(F)cc1[N+](=O)[O-] returned Rango release inh 7.4% and Rango complex inh -1.6%.
For NC(=O)C(F)(F)C12OC3C4C5CC(C6C5C3C61)C42 (stereo not drawn) the results were GLA inh pH 4.5 6.5, miR-21 FLuc -11.5%, Rango release inh 0.6% and Rango complex inh 7.4%.
For O=C(COC(=O)c1ccc2[nH]c3c(c2c1)CCCC3)Nc1ccccc1 the results were GLA inh pH 4.5 -1.0, miR-21 FLuc -15.4%, Rango release inh inconclusive and Rango complex inh inconclusive.
Screening CCN(CC(=O)NC1CC1)S(=O)(=O)c1ccc(C)cc1 returned miR-21 FLuc -4.5%, Rango release inh 0.3% and Rango complex inh -3.8%.
`CCCn1c(=O)c(C(=O)NCCc2ccc(Cl)cc2)c(O)c2ccccc21` gave miR-21 FLuc -4.7%, Rango release inh 17.1% and Rango complex inh -0.4%.

An excerpt (hit frequency here may not be typical).
